# Bioassay records from PubChem BioAssay.
# PLK1 inh: PLK1 (human) kinase inhibition; P53350; recombinant PLK1 kinase, TR-FRET peptide phosphorylation; inhibition, % at 10 µM; 97,000 tested, 0.53% active; AID 619;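 active means inhibition of 50% or more in the single-concentration screen; inactive means inhibition below 50%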;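 further: 0% = DMSO max control and 100% = H-89 dihydrochloride min control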
# HIV Rev-RRE inh: inhibitors of HIV-1 Rev-RRE RNA interaction | P05866 | Rev peptide-RRE RNA binding, FRET | inhibition, % at 8 µM | 97,000 tested, 0.79% active;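 active means inhibition above the screen-wide mean plus 3 SD, cut at about 35% in these data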;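 further: 0% = median DMSO wells and 100% = median Neomycin B control wells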
#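 Test system: Cy5-tagged RRE RNA duplex with fluorescein-tagged Rev peptide | Read-out: % inhibition of FRET ratio versus controls | Probe or stimulus: Labelled Rev peptide | Incubation: 5 min RNA-compound premix plus 15 min binding step, 25 °C | Technique: FRET fluorescence readout | Benchmarks: DMSO low control, neomycin B high control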
# EphB4 antag: EphB4-ephrin-B2 interaction antagonism. 97,000 tested, 0.15% active. inhibition, % at 7 µM. AID 720. EphB4 LBD / TNYL-RAW-Alexa532 peptide, fluorescence polarization;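 active means inhibition above the screen-wide mean inhibition plus 3 SD, cut at about 15% in these data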;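 further: 0% = DMSO wells and 100% = excess unlabeled TNYL-RAW peptide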
# LYP act: LYP (human) phosphatase activation; recombinant LYP, DiFMUP fluorescence; 0 = plate median, 100 = signal doubled; activation, % at 2 µM; 96,000 tested, 0.11% active;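 active means activation at 2 µM above a set limit, the mean plus 5 SD, cut at about 37% in these data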
# Target sequence (Q9Y2R2 whole entry, looked up): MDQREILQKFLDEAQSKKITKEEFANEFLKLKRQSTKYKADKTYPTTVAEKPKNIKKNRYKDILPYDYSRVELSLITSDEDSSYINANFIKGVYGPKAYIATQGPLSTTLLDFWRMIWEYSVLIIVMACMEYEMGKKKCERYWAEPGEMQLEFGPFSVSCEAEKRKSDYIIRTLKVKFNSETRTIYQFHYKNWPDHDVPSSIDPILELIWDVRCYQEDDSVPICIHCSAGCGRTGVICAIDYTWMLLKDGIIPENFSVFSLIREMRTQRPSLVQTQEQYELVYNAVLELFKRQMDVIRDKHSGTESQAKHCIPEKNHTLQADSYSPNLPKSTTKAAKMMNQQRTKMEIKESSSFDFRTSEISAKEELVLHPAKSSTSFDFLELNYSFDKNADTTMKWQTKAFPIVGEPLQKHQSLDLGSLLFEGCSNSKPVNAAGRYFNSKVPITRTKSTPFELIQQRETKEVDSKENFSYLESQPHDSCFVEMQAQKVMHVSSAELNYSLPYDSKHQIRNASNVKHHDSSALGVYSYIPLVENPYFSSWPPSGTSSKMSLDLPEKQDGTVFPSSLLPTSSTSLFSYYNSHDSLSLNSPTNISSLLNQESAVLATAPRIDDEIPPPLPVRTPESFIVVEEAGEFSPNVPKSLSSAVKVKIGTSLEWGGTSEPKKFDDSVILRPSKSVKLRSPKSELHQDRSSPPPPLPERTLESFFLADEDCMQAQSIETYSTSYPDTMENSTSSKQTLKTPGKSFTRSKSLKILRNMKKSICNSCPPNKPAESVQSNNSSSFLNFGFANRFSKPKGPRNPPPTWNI
# Plk1 PBD FP: Plk1 (human) PBD binding inhibition | Plk1 PBD phosphopeptide binding, fluorescence polarization | inhibition, %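 (tested at about 20 µM)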 | 97,000 tested, 0.13% active | AID 693; in the data active means inhibition above about 34%, passing the limit was not always enough
# Candida biofilm: kills Candida albicans biofilms; C. albicans biofilm + clotrimazole, Alamar Blue; inhibition, % at 6 µM; 85,000 tested, 0.14% active; AID 834;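 active means inhibition above 20%; inactive means inhibition below 20%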;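 further: preformed 24 hr biofilms exposed to compound for 48 hr; 0% = biofilm without compound and 100% = blank killed by clotrimazole plus chlorhexidine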
# LYP inh 2: LYP (human) phosphatase inhibition; recombinant LYP catalytic domain, DiFMUP fluorescence; 96,000 tested, 0.21% active; Q9Y2R2; inhibition, % at 2 µM;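 active means inhibition at 2 µM at or above a set limit, the screen mean plus 3 SD, cut at about 24% in these data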;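 further: 0% = DMSO with enzyme and 100% = enzyme fully blocked by orthovanadate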
# Starred values were filed as active, the others as inactive; nt = no result given. Some of the compounds tested; rates above refer to the full screens.
SMILES | PLK1 inh | HIV Rev-RRE inh | EphB4 antag | LYP act | Plk1 PBD FP | Candida biofilm | LYP inh 2
Cc1cccn2c(/C=N/OCc3ccc(F)cc3)c(-c3ccc(Cl)cc3)nc12 | -8 | 14 | 5 | -7 | 6 | nt | 9
C=CCn1cnc2scc(-c3ccccc3)c2c1=O | -18 | 2 | -4 | 19 | 5 | 9 | -22
COc1ccc(-c2nnc(NC(=O)c3ccc(F)cc3)o2)cc1 | -14 | -1 | -7 | -8 | 11 | -2 | 7
CC1(C)CC(=O)C2=C(C1)N(Cc1ccccc1)C(=O)C2(NC(=O)C(C)(C)C)C(F)(F)F (stereo not given) | -6 | -2 | 0 | 0 | -7 | 9 | 3
O=c1c(-c2nc3ccccc3s2)cccn1Cc1ccc(Cl)cc1 | -10 | 4 | 0 | 3 | -6 | nt | 0
Cc1ccc(-c2nc3ccccc3s2)cc1NC(=S)NC(=O)/C=C/c1ccco1 | -10 | 0 | 2 | -21 | -16 | nt | 24
COc1ccc(CCNC(=O)CCCCCN2C(=O)c3ccccc3C2=O)cc1 | -10 | 2 | 3 | 3 | -19 | nt | 0
CCCc1cc(=O)oc2cc(OCc3nn[nH]n3)ccc12 | -4 | 4 | 1 | -6 | -13 | 5 | 3
O=C(CSc1nc(-c2ccccc2)cs1)N1CCc2ccccc21 | -10 | 4 | 4 | -8 | -3 | nt | 10
CC1CCN(C2CCN(S(=O)(=O)c3ccc(F)cc3)CC2)CC1 | -7 | -1 | -5 | 2 | 6 | 12 | 0
COc1ccc(C(=O)N2CC3(CC(c4ccc(Cl)cc4)=NO3)C[C@H]2C(=O)NCC(N)=O)cc1 (stereo not given in full) | 10 | -1 | -13 | 18 | 11 | nt | -15
Cc1nc(NC(=O)c2ccccc2)sc1-c1csc(Nc2cccc(F)c2)n1 | -4 | 1 | 1 | 1 | 8 | nt | 2

# (listing goes on)
SMILES | PLK1 inh | HIV Rev-RRE inh | EphB4 antag | LYP act | Plk1 PBD FP | Candida biofilm | LYP inh 2
CC(C)C1=Nc2cccc3cccc(c23)N1 | -11 | 4 | 2 | 11 | 9 | nt | -8
CCOC(=O)c1c(C)nc2c(c1-c1ccccc1)C(=O)CCC2 | -13 | -2 | -12 | 5 | -4 | nt | 0
Cc1oc2ccc(NS(=O)(=O)c3ccc(C(C)(C)C)cc3)cc2c1C(=O)Nc1ccccc1 | -10 | 4 | 8 | -1 | 20 | nt | 6
COc1ccc2sc3c(=O)[nH]c4ccccc4c3c2c1 | 5 | -5 | -6 | 0 | -8 | nt | 3
COc1cc(C2NC(=O)NC(c3ccccc3)=C2C(C)=O)ccc1OCC#N (stereo not given) | -16 | 9 | 5 | 7 | 2 | 4 | -11
COC(=O)C1C2CCC(C2)C1C(=O)OCC(=O)c1ccccc1 (stereo not given) | -8 | -1 | -8 | 3 | 11 | nt | 0
CCOC(=O)N1CCC(n2c(SCC(=O)c3ccccc3)nc3ccsc3c2=O)CC1 | -16 | 6 | -4 | -10 | -22 | nt | 13
CCCn1nnc(NC(=O)c2cccc(Cl)c2)n1 | -12 | 5 | 0 | 5 | 25 | -2 | -2
COc1ccc(OCC(=O)N/N=C/c2ccc(O[C@@H]3O[C@H](CO)[C@@H](O)[C@H](O)[C@H]3O)cc2)cc1 | -8 | 5 | 3 | -2 | -17 | nt | 4
CCOC(=O)c1[nH]c2ccccc2c1NC(=O)c1nonc1C | -3 | 2 | -7 | -4 | -18 | 2 | 2
Cc1ccc2c(c1)N(CCC(=O)NCCCOC(C)C)C(=O)C(C)O2 (stereo not given) | -5 | 2 | 1 | 4 | 12 | 7 | -5
CCCn1nc2cc(C(=O)NCc3ccc(C)cc3)ccc2c1OCC | -6 | 5 | -6 | -1 | 14 | nt | 4

# (more compounds)
SMILES | PLK1 inh | HIV Rev-RRE inh | EphB4 antag | LYP act | Plk1 PBD FP | Candida biofilm | LYP inh 2
COC(=O)c1cn[nH]c1NC(=S)Nc1ccccc1C | 2 | 1 | 2 | 2 | -9 | nt | -4
O=C(Cn1cnc2cc(Cl)ccc2c1=O)Nc1ccc2c(c1)OCO2 | -7 | 4 | 10 | -1 | -12 | nt | -1
CCOC(=O)CN1CC23C=CC(O2)C(C(=O)NC2CCCCC2)C3C1=O (stereo not given) | -8 | 3 | -6 | -6 | 10 | 3 | 6
Cc1ccc2c(c1)-c1c(cnn1CC(=O)O)CO2 | -5 | 8 | 5 | -8 | 3 | 3 | 7
Cc1ccccc1OCCCC(=O)NCc1ccco1 | -7 | -2 | -7 | 31 | 10 | nt | -28
Fc1ccccc1CNc1cc(Cl)cc(Cl)c1 | -10 | 9 | -2 | 3 | -18 | nt | 1
COc1cc(-c2cc(-c3ccccc3)nc(SCC(=O)Nc3nccs3)c2C#N)cc(OC)c1OC | -25 | 8 | -7 | 10 | 17 | nt | -7
COC(=O)C1(S(=O)(=O)c2ccc(C)cc2)CCOCC1 | -18 | 6 | -3 | -4 | 3 | nt | 2
N#Cc1cc(-c2ccc(Cl)cc2)cnc1Sc1ccccc1 | -11 | 11 | 4 | nt | -22 | nt | nt
CC(=O)N1CCN(Cc2nc3cc(NC(=O)c4ccccc4)ccc3n2C)CC1 | -6 | 0 | -4 | 4 | -24 | 10 | -2
CN(C)S(=O)(=O)c1ccc(NC(=O)N2CCN(c3ccccc3)CC2)cc1 | -14 | 5 | 4 | -6 | 39 | nt | 9
COc1ccc(C(=O)OC2CCN(c3ncc(C(F)(F)F)cc3Cl)CC2)cc1 | -14 | 6 | -8 | 0 | 10 | nt | -1

# Some of these compounds in order of the EphB4 antag value, ascending:
SMILES | PLK1 inh | HIV Rev-RRE inh | EphB4 antag | LYP act | Plk1 PBD FP | LYP inh 2
COc1cc(-c2cc(-c3ccccc3)nc(SCC(=O)Nc3nccs3)c2C#N)cc(OC)c1OC | -25 | 8 | -7 | 10 | 17 | -7
COC(=O)C1(S(=O)(=O)c2ccc(C)cc2)CCOCC1 | -18 | 6 | -3 | -4 | 3 | 2
Fc1ccccc1CNc1cc(Cl)cc(Cl)c1 | -10 | 9 | -2 | 3 | -18 | 1
COC(=O)c1cn[nH]c1NC(=S)Nc1ccccc1C | 2 | 1 | 2 | 2 | -9 | -4
N#Cc1cc(-c2ccc(Cl)cc2)cnc1Sc1ccccc1 | -11 | 11 | 4 | nt | -22 | nt
Cc1ccc2c(c1)-c1c(cnn1CC(=O)O)CO2 | -5 | 8 | 5 | -8 | 3 | 7

# Continued:
SMILES | PLK1 inh | HIV Rev-RRE inh | EphB4 antag | LYP act | Plk1 PBD FP | Candida biofilm | LYP inh 2
COC(=O)C1=C(NC(=O)c2ccc(C)c(C)c2)CCS1 | -16 | -5 | -5 | 6 | 3 | nt | -8
COc1cc(/C=C(/NC(=O)c2ccccc2)C(=O)Nc2ccccc2)c([N+](=O)[O-])cc1OC | -15 | -2 | -8 | -3 | 6 | nt | 8
O=C(Oc1c(Cl)cc(Cl)c2ccccc12)N1CCCC1 | -6 | 8 | 5 | 5 | -4 | 3 | -4
Cc1cc2nc(C3CCN(Cc4nnnn4Cc4ccccc4)CC3)[nH]c2cc1C | -8 | 5 | -9 | 1 | -20 | nt | 1

# Two compounds picked at random from the list so far:
SMILES | PLK1 inh | HIV Rev-RRE inh | EphB4 antag | LYP act | Plk1 PBD FP | Candida biofilm | LYP inh 2
COC(=O)C1=C(NC(=O)c2ccc(C)c(C)c2)CCS1 | -16 | -5 | -5 | 6 | 3 | nt | -8
Cc1cc2nc(C3CCN(Cc4nnnn4Cc4ccccc4)CC3)[nH]c2cc1C | -8 | 5 | -9 | 1 | -20 | nt | 1
